Source: PubChem
GIRK2 act: activators of human GIRK2 potassium channels | G protein-activated inward rectifier potassium channel 2 (Homo sapiens), P48051 | HEK293-GIRK2 thallium flux, Thallos fluorescence | calls only for hits at 25 µM | 0.05% of 63,000 active;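 active means among the strongest 0.2% of first-round signals and kept after retests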;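 further: first round at about 10 µM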
Target sequence (P48051 whole entry, looked up): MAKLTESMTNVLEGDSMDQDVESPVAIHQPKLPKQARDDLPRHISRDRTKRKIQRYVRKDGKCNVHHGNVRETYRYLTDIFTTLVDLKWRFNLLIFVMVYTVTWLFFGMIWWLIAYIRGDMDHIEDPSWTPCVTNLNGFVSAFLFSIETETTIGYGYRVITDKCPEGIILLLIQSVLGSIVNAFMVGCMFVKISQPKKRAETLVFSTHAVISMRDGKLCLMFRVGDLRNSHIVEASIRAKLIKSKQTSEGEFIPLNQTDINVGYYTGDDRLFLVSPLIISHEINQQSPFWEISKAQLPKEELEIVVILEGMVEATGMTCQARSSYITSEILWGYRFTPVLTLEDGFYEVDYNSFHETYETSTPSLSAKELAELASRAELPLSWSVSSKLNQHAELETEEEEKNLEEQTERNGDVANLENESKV
Calls only; i = inactive. Some of the compounds tested; rates above refer to the full screens.

SMILES	GIRK2 act
O=C1C2C3C=CC(C3)C2C(=O)N1C1CCCS1(=O)=O (centres undefined)	i
O=C(NCC(O)c1ccoc1)C(=O)NC1CC1 (centres undefined)	i
CN(C)S(=O)(=O)c1ccc(-c2nc(C#N)c(NCCc3ccccc3)o2)cc1	i
Cc1noc(-c2cccnc2N2CCC(NC(=O)Cc3ccsc3)C2)n1 (centres undefined)	i
O=C(Cc1csc(SCc2ccncc2)n1)N1CCN(c2ccccc2)CC1	i
COC1(CNC(=O)/C=C/c2ccccc2Cl)CCSC1 (centres undefined)	i
CCn1c(SCC(=O)Nc2ccc(C(C)=O)cc2)nc2c(-c3ccc(C)cc3)csc2c1=O	i
COc1ccc(C(=O)Nc2ccc3c(=O)c4ccccc4oc3c2)cc1	i
Cn1cnnc1SCc1cc(=O)c(OCC(=O)Nc2cccc([N+](=O)[O-])c2)co1	i
CC/C=C\C/C=C\C/C=C\CCCCCCCC(=O)OCC	i
Cc1ccc(S(=O)(=O)Nc2cccc(C(=O)NCCC(C)C)c2)cc1	i
O=c1c(S(=O)(=O)N2CCCC2)cccn1Cc1ccccc1OC(F)(F)F	i
COc1ccc(NC(=O)c2cn(Cc3ccc(NC(=O)Cc4cccc(OC)c4)cc3)cn2)cc1	i
COc1ccc(-c2cc3c(SCC(=O)Nc4ccc(Cl)cc4C(F)(F)F)nccn3n2)cc1	i
O=c1[nH]c(SC2C=CCCC2)nc2sc3c(c12)CCCC3 (centres undefined)	i
COc1ccc(C)cc1NC(=O)CSc1nccn2nc(-c3ccccc3)cc12	i
Cc1cc(OCC(O)CN2CCN(Cc3ccc4c(c3)OCO4)CC2)ccc1Cl (centres undefined)	i
Cc1nnc(C2CCCN(C(=O)c3cccs3)C2)s1 (centres undefined)	i
CC(CCc1ccccc1)NC(=O)Cn1cccc(-c2nc(-c3cnccn3)no2)c1=O (centres undefined)	i
Cc1[nH]c(=O)[nH]c(=O)c1CCc1nnc(SCC(=O)NCC2CCCO2)o1 (centres undefined)	i
O=C(c1ccc(Cl)c(Cl)c1)N1CCC2(CC1)OCCS2	i
Cc1cc(C(F)(F)F)nc(CCNC(=O)c2ccccc2Cl)n1	i
CCc1ccc(-n2nnc(C(=O)Nc3ccccc3C(F)(F)F)c2C)cc1	i
O=C(CC(c1ccccc1)c1ccccc1)NC1CC(O)C(CO)C1 (centres undefined)	i
Cc1nc(C(=O)Nc2ccc3c(c2)C(=O)N(C)CCO3)cs1	i
SMILES	GIRK2 act
CCCc1nnsc1C(=O)N1CCN(CCn2cccn2)CC1	i
CC(C)c1cc(=O)[nH]c(-n2nc(C3CC3)cc2NC(=O)c2ccc3c(c2)OCO3)n1	i
COC(=O)c1ccc(CSc2nnc(N3CCN(c4ccccc4OC)CC3)s2)o1	i
O=C(CCCc1ccccc1)Nc1cnoc1	i
Cn1nc(N2CCC(C(=O)Nc3ccc(-n4cnnn4)cc3)CC2)ccc1=O	i
Cc1cn2c(CCC(=O)NCc3nc(C)no3)csc2n1	i
COc1ccc(Cl)cc1C(=O)N1CCN(c2ccc3nnc(-c4ccco4)n3n2)CC1	i
O=C(CCS(=O)(=O)c1ccccc1)N1CCN(C(=O)C2CC2c2cccs2)CC1 (centres undefined)	i
O=C(NCc1ccc(F)c(Cl)c1)c1ccc(Cn2c(=O)[nH]c3ccsc3c2=O)cc1	i
Cc1ccc(NC(=O)c2ccccc2C(F)(F)F)cc1N1CCCC1=O	i
COc1cccc(C(=O)N2CCN(c3nc(N4CCOCC4)nc(-n4ccnc4)n3)CC2)c1OC	i
COc1ccc(NC(=O)CSc2nnc(Cc3ccccc3)n2N)c(OC)c1	i
Cc1cccc(C(=O)Nc2c(C(=O)N3CCN(c4cccc(C)c4)CC3)[nH]c3ccccc23)c1	i
CCN1CCN(C(=O)C(=O)c2cn(CC(=O)N3CCOCC3)c3ccccc23)CC1	i
COc1ccc(S(=O)(=O)NCC(c2ccsc2)N2CCc3ccccc3C2)cc1Cl (centres undefined)	i
COCCN(Cc1ccoc1)C(=O)c1ccc(S(=O)(=O)N2CCCC2)cc1	i
Cc1cc(C)c(S(=O)(=O)NCCn2nc(-n3cccn3)ccc2=O)cc1C	i
c1ccc(-n2nnc(-c3noc(-c4ccc5c(c4)OCO5)n3)c2-c2ccncc2)cc1	i
CCCS(=O)(=O)N1CCCC(c2nnc(Cc3ccc(F)cc3)o2)C1 (centres undefined)	i
COc1ccc(-c2c(C)oc3c4c(ccc3c2=O)OCN(Cc2cccs2)C4)cc1	i
O=C(c1ccc2nc[nH]c2c1)N1CCN(S(=O)(=O)C2CC2)CC1	i
CCNC(=O)N1CCN(CC(=O)c2ccco2)CC1	i
COc1ccc(-c2noc(CSc3nc4ccccc4c(=O)n3Cc3ccccc3)n2)cc1OC	i
CSc1ncccc1C(=O)N1CCC(CNC(=O)C(=O)NCC(F)(F)F)CC1	i
Cc1oc2c3c(ccc2c(=O)c1-c1ccc(Cl)cc1)OCN(Cc1cccnc1)C3	i
SMILES	GIRK2 act
Cn1nc(C(=O)N2CCN(Cc3nc4ccccc4n3C)CC2)ccc1=O	i
CSc1cccc(NC(=O)Cn2cc(-c3ccccc3)c3ncn(C(C)C)c(=O)c32)c1	i
O=S(=O)(c1ccc(Br)cc1)N1CCC(Oc2ncccc2Cl)CC1	i
CC(=O)N1CCN(c2ccnc3c2c(=O)n(CC(=O)Nc2cc(C)cc(C)c2)c(=O)n3C)CC1	i
CC12CCC(C/C1=N/Nc1nc(O)c(C3=c4ccccc4=NC3=O)s1)C2(C)C (centres undefined)	i
Cc1ccc(C)c(NC(=O)c2ccc(S(=O)(=O)N3CC(C)CC(C)C3)cc2)c1 (centres undefined)	i
CC1=C(C(=O)OCc2ccccc2)C(c2ccc(Cl)cc2)NC(=O)N1 (centres undefined)	i
COc1ccccc1-c1cc2nc(C)cc(N3CCOCC3)n2n1	i
CCOc1ccc(N2CCN(CC(=O)NCCCN3CCCC3=O)C2=O)cc1	i
COc1cccc(C(=O)Nc2cc3c4c(c2)CCC(=O)N4CCC3)c1OC	i
O=C(Nc1nc2c(s1)CN(C(=O)C1(c3cccs3)CCCC1)CC2)c1ccco1	i
C=CCC1OC(=O)CCNC(=O)C(C)N(C)C(=O)C(C(C)C)N(C)C(=O)C(C(C)CC)NC(=O)C2CCCN2C1=O (centres undefined)	i
O=C(NCCN1CCOCC1)C(=O)NCCN1CCN(c2ccccc2F)CC1	i
Cc1cc(C(=O)N2CCN(CC(O)c3ccco3)CC2)no1 (centres undefined)	i
CCOc1cc(S(=O)(=O)N2CCCCCC2)c(OCC)cc1C	i
COc1ccc(-c2csc(/C(C#N)=C\Nc3ccc(S(=O)(=O)Nc4cc(C)on4)cc3)n2)cc1	i
COCCCn1c(=O)c2ccccc2n(Cc2nc(-c3ccc(OC)cc3OC)no2)c1=O	i
CNc1cc(S(=O)(=O)N2CCCCC2)ccc1OC	i
COc1ccc(/C=C/C(=O)Nc2ccccc2)cc1OC	i
O=C(Cn1nnn(-c2ccc(NC(=O)c3cc(-c4ccccc4)on3)cc2)c1=O)NC1CC1	i
COCCNC(=O)CN1CCN(CC(O)c2cccs2)CC1 (centres undefined)	i
O=C(Cn1cccc(-c2nc(C3CC3)no2)c1=O)N1CCC(Cc2ccccc2)CC1	i
COc1ccc(CCNc2nccn(Cc3ccc(Cl)cc3)c2=O)cc1OC	i
Cc1cc(NC(=O)Cc2cccs2)n(-c2nc(-c3ccc(Cl)cc3)cs2)n1	i
CN(C)C(CNC(=O)C(=O)Nc1cccc(N2CCCC2=O)c1)c1ccc2c(c1)CCO2 (centres undefined)	i
SMILES	GIRK2 act
C=C(C)COc1ccc(-c2ncncc2-c2ccc(OC)c(OC)c2)c(O)c1	i
CCc1ccc2ncc(C#N)c(N3CCC(C(=O)NCc4ccc(Cl)cc4)CC3)c2c1	i
CN(C)S(=O)(=O)N1CCC(CSCc2ccco2)CC1	i
O=C(CSc1cc(NCc2ccc(Cl)cc2)ncn1)Nc1ccccc1F	i
CCOc1ccccc1NC(=O)CN1CCN(Cc2nc(-c3ccccc3)cs2)CC1	i
COc1cccc(C(=O)NCC2CCN(S(=O)(=O)c3cccnc3)CC2)c1	i
Cc1nc(-c2ccc(N3CCN(C(=O)NCc4cccs4)CC3)nc2)no1	i
Cc1cc(C)cc(C(=O)N2CCC3(CC2)CC(=O)c2ccccc2O3)c1	i
Cc1cc2ncn(CC3CCN(C(=O)c4ccc(=O)[nH]c4)CC3)c2cc1C	i
CC(C)(c1ccccc1)c1cc(CN2CCOCC2)c(O)c(CN2CCOCC2)c1	i
CC(C)N1CCC(CNS(=O)(=O)c2cccc3ccccc23)CC1	i
Cc1ccc(NC(=O)c2ccc(CN3CCNCC3)cc2)cc1Nc1nccc(-c2cccnc2)n1	i
CC1CCN(c2cc(NC(=O)c3ccncc3)ncn2)CC1	i
CC(O)(CCc1ccccc1)CNC(=O)CCS(=O)(=O)c1ccccc1 (centres undefined)	i
N#Cc1ccc(C(=O)Nc2nnc(-c3ccsc3)o2)cc1	i
COc1ccc(S(=O)(=O)NCC(c2cccnc2)N2CCN(Cc3ccccc3)CC2)cc1 (centres undefined)	i
N[C@@H](C(=O)N[C@@H]1C(=O)N2C(C(=O)O)=C(CSc3cn[nH]n3)CS[C@H]12)c1ccc(O)cc1	i
O=C(/C=C/c1ccc2c(c1)OCO2)NCC1CCN(C(=O)c2ccoc2)CC1	i
CC(=O)COc1ccc2c(c1)O/C(=C\c1ccc(Cl)cc1)C2=O	i
Cc1cccc2sc(NC(=O)CNC(=O)c3ccc(=O)[nH]c3)nc12	i
O=C(CC1CCCC1)N1CCN(c2ncnc3c2nnn3-c2ccccc2)CC1	i
O=C(NCCc1ccsc1)c1ccc(OC(F)(F)F)cc1	i
Cc1nc(NC(=O)c2ccc(OCC(=O)C3CC3)cc2)sc1C(=O)N(C)C	i
CS(=O)(=O)N1CCN(C(=O)c2cc(-c3cccs3)[nH]n2)CC1	i
COc1ccc(-c2c(N)oc3cc(OCc4ccc(Cl)cc4)ccc3c2=O)cc1OC	i

Copied from above (18 entries):
SMILES	GIRK2 act
C=C(C)COc1ccc(-c2ncncc2-c2ccc(OC)c(OC)c2)c(O)c1	i
CCc1ccc2ncc(C#N)c(N3CCC(C(=O)NCc4ccc(Cl)cc4)CC3)c2c1	i
CN(C)S(=O)(=O)N1CCC(CSCc2ccco2)CC1	i
O=C(CSc1cc(NCc2ccc(Cl)cc2)ncn1)Nc1ccccc1F	i
CCOc1ccccc1NC(=O)CN1CCN(Cc2nc(-c3ccccc3)cs2)CC1	i
COc1cccc(C(=O)NCC2CCN(S(=O)(=O)c3cccnc3)CC2)c1	i
Cc1nc(-c2ccc(N3CCN(C(=O)NCc4cccs4)CC3)nc2)no1	i
Cc1cc(C)cc(C(=O)N2CCC3(CC2)CC(=O)c2ccccc2O3)c1	i
Cc1cc2ncn(CC3CCN(C(=O)c4ccc(=O)[nH]c4)CC3)c2cc1C	i
CC(C)(c1ccccc1)c1cc(CN2CCOCC2)c(O)c(CN2CCOCC2)c1	i
CC(C)N1CCC(CNS(=O)(=O)c2cccc3ccccc23)CC1	i
Cc1ccc(NC(=O)c2ccc(CN3CCNCC3)cc2)cc1Nc1nccc(-c2cccnc2)n1	i
CC1CCN(c2cc(NC(=O)c3ccncc3)ncn2)CC1	i
CC(O)(CCc1ccccc1)CNC(=O)CCS(=O)(=O)c1ccccc1 (centres undefined)	i
N#Cc1ccc(C(=O)Nc2nnc(-c3ccsc3)o2)cc1	i
COc1ccc(S(=O)(=O)NCC(c2cccnc2)N2CCN(Cc3ccccc3)CC2)cc1 (centres undefined)	i
N[C@@H](C(=O)N[C@@H]1C(=O)N2C(C(=O)O)=C(CSc3cn[nH]n3)CS[C@H]12)c1ccc(O)cc1	i
O=C(/C=C/c1ccc2c(c1)OCO2)NCC1CCN(C(=O)c2ccoc2)CC1	i

Continuation.
SMILES	GIRK2 act
COc1ccc(NC(=O)c2cnc(N3CCN(c4cccc(C)c4C)CC3)nc2N)cc1	i
COc1ccccc1Oc1coc2c3c(ccc2c1=O)OCN(Cc1ccco1)C3	i
COc1ccc(C(=O)Nc2sc3c(c2-c2nc4ccccc4s2)CCN(C)C3)c(OC)c1	i
CCC(C(=O)NCc1ccc(-c2nccs2)cc1)c1ccccc1 (centres undefined)	i
Cc1ccc(Cn2c(=O)c3ccccc3n(Cc3nc(-c4ccccc4Cl)no3)c2=O)cc1	i
CC(Cn1nc(-c2cccs2)ccc1=O)C(=O)NCc1ccccc1OC(F)(F)F (centres undefined)	i
CCc1ccccc1NC(=O)CCCOc1ccccc1OC	i
CC(=O)N1c2ccc(S(=O)(=O)NCCOc3ccc(F)cc3)cc2CC1C (centres undefined)	i
O=C(CN1CCN(C(=O)c2sc3ncccc3c2-n2cccc2)CC1)N1CCCC1	i
COCCn1c(=O)c2c(nc(-n3nc(C)cc3C)n2Cc2ccccc2F)n(C)c1=O	i
CCNc1nc2c(c(=O)[nH]c(=O)n2C)n1CC(=O)c1ccc(OC)cc1	i
COc1cc(NC(=O)c2nnn(Cc3cccc(Br)c3)c2N)cc(OC)c1	i
Clc1ccc2nsnc2c1NC1=NCCN1	i
Cc1cc(N2C(=O)c3oc4ccc(F)cc4c(=O)c3C2c2cccc(OC(C)C)c2)no1 (centres undefined)	i
Cc1nc2sc(C)c(C)n2c(=O)c1NC(=O)c1cccc(C(F)(F)F)c1	i
Cc1ccc(Cl)cc1N1CCN(S(=O)(=O)c2nn(C)cc2C(=O)NC2CCCC2)CC1	i
C=CCc1ccccc1OCC(O)CN1CCC(C)CC1 (centres undefined)	i
CCCCC[C@H](O)/C=C/[C@@H]1[C@@H](CC(=O)CCCCC(=O)O)[C@@H](O)C[C@H]1O	i
COCCN(Cc1ccoc1)S(=O)(=O)c1ccc(OC)c(Cl)c1	i
COc1ccc(S(=O)(=O)N2CCCc3cc(NS(=O)(=O)c4ccc(F)c(C)c4)ccc32)cc1	i
CCOC(=O)Oc1cc2c(C(=O)OCC)c(C)oc2cc1Br	i
CCOc1ccc2ccccc2c1C(=O)NC1CCN(CCOC)CC1	i
COc1ccc(NC(=O)c2ccc3nn(CC(=O)Nc4ccc5c(c4)OCCO5)c(=O)n3c2)cc1	i
CC(=O)N(C)CC(=O)N1CCN(c2cc(C)nc(Nc3ccc(C)cc3)n2)CC1	i
COc1cc(/C=C/C(=O)N(CCc2cccs2)Cc2ccoc2)cc(OC)c1OC	i
CCCOc1cc(S(=O)(=O)NCc2cccnc2)ccc1Cl	i
CC(C)n1c(SCC(=O)NCc2ccc(Cl)cc2)nc2nc(N3CCCCC3)sc2c1=O	i
